Source: PubChem (several laboratories)
Beta apoptosis: blocks beta cell apoptosis | INS-1E cytokine-induced death, ATP luminescence, 48 h; percent of positive-control rescue, neutral wells zero | protection from apoptosis, % (no concentration beside the values) | hit rate 0.8% among 300,000 | AID 435005;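 active = all replicates at 75% or more, or half of them and the mean; inconclusive = half reach 75% but not the mean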;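 also: 0% = cytokine-treated negative control wells and 100% = positive control rescue; higher means more ATP so stronger rescue from cytokine killing; wells of about 40 µL received 100 nL stock; the first replicate is given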
Vif TR-FRET: inhibitors of Vif binding to APOBEC3G peptide, primary screen, biochemical, TR-FRET, GST-Vif 1-94, biotin-A3G peptide, dose response retest (AID 1117319); TR-FRET GST-Vif / biotin-A3G peptide binding; higher % means a stronger effect; test concentration not given here; strong numbers were not always called active; hit rate 0.57% among 260,000; inhibition, %; hits with a dose series show IC50 in µM;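 active = above the screen mean plus three standard deviations and confirmed in dose response; inconclusive = results disagree or hit not tested in dose response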;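 also: Vif residues 1-94 fused to GST binding biotinylated APOBEC3G peptide 110-148; 0% = full assay without inhibitor and 100% = GST in place of GST-Vif; retest series ran down from 100 µM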
RanGTP-Impb inh: inhibitors of RanGTP-importin-beta interaction, primary screen, biochemical, FRET, CFP-Ran, YFP-importin-beta, homogeneous; cell-free CFP-Ran/YFP-importin-beta FRET ratio; inhibition, % (test concentration not listed); hit rate 1.1% among 300,000; AID 2216;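 active = most replicates above 15%; inconclusive = exactly half above 15%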;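 also: 0% = DMSO wells and 100% = Ran loaded with GDP instead of GTP; wells of about 40 µL received 100 nL stock; the first replicate is given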
Bfl-1 A1 inh: inhibitors of the anti-apoptotic protein A1, read as caspase activation. MEF A1-2A-BIM cells, Caspase-Glo 3/7 luminescence, 3 h; percent of clofoctol response, vehicle zero. caspase activation, % (test concentration not listed). hit rate 0.066% among 330,000. AID 2462;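 active = over half of replicate activation scores above 10%, or exactly half above 10 with the replicate mean above 10; inconclusive = replicate mean below 10 yet half the replicates above 10; inactive = over half of replicates below 10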;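 also: wells of about 30 µL received 50 nL stock; many hits fall short of the cut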
T cruzi inh: T. cruzi replication inhibition; inhibition, % (no concentration beside the values); hit rate 1.4% among 300,000; AID 1885; T. cruzi beta-gal in NIH3T3, luminescence, 90 h;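 active = mean inhibition across valid replicates above about 55%, limit read from the data; inconclusive = mean below that limit but half or more replicates reach it; inactive = mean below it, under half of replicates reach it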;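 also: signal also drops with host cell toxicity which is not excluded here; 0% = plate median of DMSO wells and 100% = zero luminescence signal; higher percent means less beta-gal luminescence so fewer parasites; stock transfer was 50 nL into about 50 µL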
AF4-AF9 inh: inhibitors of human MLL-AF4/AF9 interaction; AID 651704; inhibition, % at 10 µM; AlphaScreen, biotin-AF4 peptide binding to FLAG-AF9; P42568; hit rate 0.47% among 350,000;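 active = every replicate reaching a set inhibition limit, whatever the replicate mean, cut at about 25% in these data; inconclusive = mean inhibition reaches that limit but some replicates miss it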;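 also: 0% = plate neutral control median and 100% = total signal loss; the record names both 10 and 1 µM as test concentration; the first replicate is given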
Target sequence (P42568 whole entry, looked up): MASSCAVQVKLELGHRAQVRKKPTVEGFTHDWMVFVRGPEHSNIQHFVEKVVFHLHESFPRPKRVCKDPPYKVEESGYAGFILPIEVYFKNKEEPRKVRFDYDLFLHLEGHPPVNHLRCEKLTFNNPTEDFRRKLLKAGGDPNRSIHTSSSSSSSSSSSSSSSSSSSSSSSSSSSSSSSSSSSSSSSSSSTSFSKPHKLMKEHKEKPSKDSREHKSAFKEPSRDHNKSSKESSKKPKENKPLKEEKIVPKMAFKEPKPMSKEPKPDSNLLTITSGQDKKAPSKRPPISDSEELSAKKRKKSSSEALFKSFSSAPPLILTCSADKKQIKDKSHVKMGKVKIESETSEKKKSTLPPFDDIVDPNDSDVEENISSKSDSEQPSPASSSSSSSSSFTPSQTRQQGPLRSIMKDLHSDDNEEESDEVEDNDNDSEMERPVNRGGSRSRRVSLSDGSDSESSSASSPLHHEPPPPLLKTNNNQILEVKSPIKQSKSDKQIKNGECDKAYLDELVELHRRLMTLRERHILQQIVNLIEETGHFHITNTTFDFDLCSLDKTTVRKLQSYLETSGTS
rRNA inh HTS: inhibits bacterial ribosomal RNA function over humanized ribosomes; AID 720706; E. coli WT GFP vs humanized-ribosome RFP mutants, fluorescence, 24 h; hits give low values; DMSO median 0, no signal -100; hit rate 1.6% among 350,000; GFP signal change (wild-type ribosome), % (test concentration not listed);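 active = significant combined selectivity score with lowered wild-type GFP, culture density cut under 30%, mutant RFP and density less affected; inactive = any of these conditions unmet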; also: one replicate is shown; some compounds called inactive have numbers as strong as hits
Calb FLC: affects C. albicans growth with fluconazole; C. albicans CaCi-2 (fluconazole-resistant clinical isolate) + fluconazole, Alamar Blue growth, 48 h; growth inhibition, % (concentration not given with the values); hit rate 0.57% among 300,000; AID 1979;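 active = most replicates above 75%; inconclusive = exactly half above 75%; inactive = most below 75%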;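 also: all wells also contain fluconazole at 8 µg/ml as a sub-toxic cotreatment; 0% = median of DMSO wells and 100% = median of geldanamycin control wells; wells of about 8 µL received 7.5 nL stock; the first replicate is given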
rRNA inh HTS OD600: second read-out of rRNA inh HTS, no call of its own (marks repeat the call); OD600 change, %; measured here: OD600 growth;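 optical density of the mix in the first replicate; 0 = DMSO median and -100 = no signal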
rRNA inh HTS RFP: also measured in rRNA inh HTS; calls as there; RFP signal change, %; measured here: RFP humanized mutant strains;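 first replicate; 0 = DMSO median and -100 = no signal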
Starred values were filed as active, the others as inactive; ? = inconclusive; / = no result given; & = joins results of further samples.

structure,Beta apoptosis,Vif TR-FRET,RanGTP-Impb inh,Bfl-1 A1 inh,T cruzi inh,AF4-AF9 inh,rRNA inh HTS,rRNA inh HTS OD600,rRNA inh HTS RFP,Calb FLC
CCN1C(=O)[C@@H]2[C@@H](c3ccc(-c4ccc(F)cc4)c(OC)c3)N3CCCC[C@@]3(C(=O)OC)[C@@H]2C1=O,33,/,/,-0.2,/,4.0,24,13,-2.4,/
COc1ccc(Cn2nnc(C(=O)Nc3ccc4c(c3)OCCO4)c2N)cc1Br,-11,5%,1.7,0.5,26,-6.7,-13,-14,0.1,16
COc1ccc(OCC(O)Cn2c(Br)nc3c2c(=O)[nH]c(=O)n3C)cc1 (stereo not given),0,-3%&-1%,2.7,-0.8,-4,/,/,/,/,2
COc1ccc(S(=O)(=O)Nc2ccc(S(=O)(=O)NCC3CCCO3)cc2)cc1 (stereo not given),6,/,-3.1,1.0,14,-1.4,2,-3,-3.0,3
CC(=O)Nc1ccc(NC(=O)c2ccc(NS(=O)(=O)c3cc(C(C)(C)C)ccc3C)cc2)cc1,-9,1%,0.7,-0.3,2,-1.0,3,-3,-2.6,0
CC(OC(=O)COc1ccc(C#N)cc1)C(=O)c1ccccc1 (stereo not given),-1,-8%,/,?,/,0.4,17,11,0.5,/
CC(/C=N/Nc1ccc2nncn2n1)=C\c1ccccc1,5,-9%,1.1,0.3,-2,4.1,/,/,/,1
COc1ccc(NC(=O)C2CC(=O)N(c3cccc(C)c3C)C2)cc1 (stereo not given),-2,16%,-2.3,-0.5,-16,/,/,/,/,19
CCc1noc(C)c1C(=O)N(CCCOC)c1c(N)n(Cc2ccccc2)c(=O)[nH]c1=O,-3,3%,?,0.7,-8,/,/,/,/,/
COc1ccc(NC(=O)C(NC(=O)CNC(C)=O)c2ccc(C)cc2)cc1 (stereo not given),-5,2%,-3.9,1.1,-6,/,/,/,/,-2
CC(=O)c1ccc(N2C(=O)CC(N3CCN(S(=O)(=O)c4cc(C)ccc4C)CC3)C2=O)cc1 (stereo not given),-5,-3%,/,-0.8,/,0.5,-3,-6,-0.4,/
Cc1sc(NC(=O)c2ccco2)c(C(c2ccncc2)N2CCOCC2)c1C (stereo not given),-10,0%,3.9,0.6,6,/,/,/,/,2
CN(C)c1ccc(P(=O)(OCc2ccccc2)C(O)c2cccnc2)cc1 (stereo not given),-4,4%,-3.6,1.1,-5,/,/,/,/,-10
C=CCn1c(SCC(=O)Nc2ccc3c(c2)OCCO3)nc2cc(C(=O)O)ccc2c1=O,-2,-2%,/,-0.7,/,1.2,-3,4,-1.8,/
C=CCOC(=O)C1=C(C)Nc2ncnn2C1c1cccs1 (stereo not given),-2,?,-3.4,-0.2,-2,/,/,/,/,4
COC(=O)c1sc(NC(=O)c2ccoc2C)nc1C,/,-2%,8.4,/,11,/,/,/,/,-5
COc1ccc(CNC(=O)c2csc(Cc3ccc(OC)cc3)n2)cc1,2,-2%,2.7,0.2,2,/,/,/,/,2
O=C(CSc1nnc(CCCOc2ccc(Cl)cc2Cl)o1)Nc1ccc(C(=O)O)cc1,0,-2%,3.1,0.7,-13,/,/,/,/,1
Cc1cc(C(=O)CN2C(=O)NC(C)(c3ccccc3)C2=O)c(C)n1CC1CCCO1 (stereo not given),0,25%,-2.2,0.6,-7,/,/,/,/,-4
Cc1nc2ccccn2c1C(=O)NNC(=S)Nc1ccccc1,-4,-8%,3.1,-0.6,9,1.8,-6,3,-3.2,1
COc1ccc(NC(=O)C2CCCN2S(=O)(=O)c2ccc(Cl)cc2)cc1 (stereo not given),2,/,-4.7,0.2,9,1.0,-1,15,17,8
CCCc1cc(=O)oc2cc(C)cc(OCC(=O)N3CCC(C(=O)O)CC3)c12,/,/,-1.3,-0.8,-20,4.4,/,/,/,-4
CCn1c(SCC(=O)c2cc(C)ccc2C)nc2cc(S(=O)(=O)N3CCOCC3)ccc21,10,31%,-0.2,0.0,16,5.1,-11,-10,8.5,27
COc1ccc(CC2NCCC3=CC(=O)CCC32)cc1O (stereo not given),2,/,29*,-0.2,15,-1.2,5,15,1.5,0
NC(=O)[C@@H]1CCCNc2c(F)cc([N+](=O)[O-])cc2C(=O)N[C@@H](CCC(=O)O)C(=O)N[C@@H](CO)C(=O)N1,-2,12%,3.6,0.4,-29,4.2,6,15,7.7,-6

Retrieved one by one from the list above:
structure,Beta apoptosis,Vif TR-FRET,RanGTP-Impb inh,Bfl-1 A1 inh,T cruzi inh,AF4-AF9 inh,rRNA inh HTS,rRNA inh HTS OD600,rRNA inh HTS RFP,Calb FLC
O=C(CSc1nnc(CCCOc2ccc(Cl)cc2Cl)o1)Nc1ccc(C(=O)O)cc1,0,-2%,3.1,0.7,-13,/,/,/,/,1
COc1ccc(NC(=O)C2CC(=O)N(c3cccc(C)c3C)C2)cc1 (stereo not given),-2,16%,-2.3,-0.5,-16,/,/,/,/,19

More compounds.
structure,Beta apoptosis,Vif TR-FRET,RanGTP-Impb inh,Bfl-1 A1 inh,T cruzi inh,AF4-AF9 inh,rRNA inh HTS,rRNA inh HTS OD600,rRNA inh HTS RFP,Calb FLC
COc1ccc(NC(=O)C(=O)c2cn(CC(=O)N3CCOCC3)c3ccccc23)cc1OC,-6,5%,0.6,-0.7,-8,6.8,2,3,3.5,36
CCOc1ccc(-c2noc(CCCC(=O)NC3CCCCC3)n2)cc1OC,1,/,-1.8,0.3,22,-0.6,-3,-10,3.0,-13
O=C1c2ccccc2C(=O)N1CCc1csc(-c2cccc(Cl)c2)n1,8,6%,7.5,0.8,-11,/,/,/,/,9
COCCn1c(=O)[nH]c2cc(C(=O)NCC3CCCO3)ccc2c1=O (stereo not given),-2,12%,1.5,-0.4,-3,/,/,/,/,26
COc1ccc(Br)cc1S(=O)(=O)n1c([N+](=O)[O-])cnc1C,0,15%,4.8,1.6,-11,0.2,-1,4,-1.8,-9
CCCCOc1ccc(CN2CCC(O)CC2)cc1,-7,3%,-6.5,0.5,?,/,/,/,/,-17
CCN(CC)S(=O)(=O)c1ccccc1/C=N\O,-7,-3%,1.6,0.0,0,/,/,/,/,-7
BrC(/C=N/N1CCN(Cc2ccccc2)CC1)=C/c1ccccc1,-2,-2%,7.8,-0.3,8,8.8,-42*,-30*,-10*,2
O=C(CN1C(=O)COc2ccccc21)N1CCN(c2ccccc2F)CC1,2,-3%,-2.1,0.0,2,/,-5,0,-3.1,5
CC(C(=O)Nc1cccnc1)n1cc([N+](=O)[O-])cn1 (stereo not given),-8,5%,-1.5,-0.3,-8,-2.3,1,4,-13,-3
CCCN1C2CCCC1CC(NC(=O)c1ccc(OC)cc1)C2 (stereo not given),-5,/,0.3,0.8,4,-3.0,9,-4,1.9,-4
Cc1ccc(/C=N/NC(=O)CSc2nnc(-c3ccccc3)n2-c2ccc(Cl)cc2)o1,11,/,2.4,0.6,17,15,3,3,5.6,2
CCOC(=O)CSc1n[nH]c(-c2ccco2)n1,0,5%,?,0.1,-6,-0.2,7,8,-0.8,-1
Cc1cccc(Cl)c1NC(=O)N1CCCN(c2ncccc2[N+](=O)[O-])CC1,2,-11%,-1.3,-0.8,13,1.0,-2,-5,0.7,19
CC(C)NS(=O)(=O)c1ccc(OCC(=O)N2CCN(c3ccccc3)CC2)cc1,1,/,0.9,0.0,-6,-2.2,-4,-15,-1.2,8
Cc1ccc(C)c(NC(=O)C(c2ccccc2)N2CCOCC2)c1 (stereo not given),11,/,7.4,-0.1,12,-0.2,2,2,2.4,1
Cc1onc(-c2c(F)cccc2Cl)c1C(=O)Nc1nnc(C2CC2)s1,2,11µM*,-0.9,-0.5,-5,/,/,/,/,-2
Cc1ccc(N=Nc2c(C)[nH]n(-c3ccccc3)c2=O)cc1,8,-6%,1.1,0.0,9,1.5,28,26,8.3,-3
COC(=O)c1ccc(COc2ncnc3sccc23)cc1,-7,-5%,2.2,-0.2,-2,-0.6,-8,-9,1.3,30
CNS(=O)(=O)c1cc(C(=O)OCC(=O)NC2CCCc3ccccc32)ccc1Cl (stereo not given),1,-2%,-0.6,0.0,-2,-0.9,-20,-26,-6.6,-1
O=C(NC(Cc1ccccc1)C(=O)O)OCC1c2ccccc2-c2ccccc21 (stereo not given),/,-4%,1.8,0.8,-1,-1.1,-31,-41,-11,40
O=C(O)c1ccc(NS(=O)(=O)c2cc(C(=O)O)ccc2Br)cc1,-9,12%,3.8,0.3,-8,/,/,/,/,-3
CCOC(=O)COc1cc(OCC(=O)OCC)c2c(=O)cc(-c3ccccc3)oc2c1,-4,5%,9.8,0.4,-16,/,/,/,/,-33
COc1cc(NS(=O)(=O)c2ccc(NC(=S)NC(=O)c3ccco3)cc2)nc(OC)n1,1,0%,-0.6,0.5,8,-3.0,-19,-16,-2.1,1
Cn1ccnc1CC(O)(c1ccccc1)c1ccccc1,-1,-10%,-0.6,-0.3,-14,-9.8,15,13,-2.6,-4
O=C(NCc1ccccc1Cl)C1CCCN(S(=O)(=O)c2cnc[nH]2)C1 (stereo not given),-9,2%,3.9,-1.5,-2,3.8,-3,-1,4.9,-5
OC(CNCc1cccc(Cl)c1)c1ccccc1 (stereo not given),1,/,1.7,-0.3,-9,-0.1,/,/,/,-8

Copied from the results shown (8 entries):
structure,Beta apoptosis,Vif TR-FRET,RanGTP-Impb inh,Bfl-1 A1 inh,T cruzi inh,AF4-AF9 inh,rRNA inh HTS,rRNA inh HTS OD600,rRNA inh HTS RFP,Calb FLC
CNS(=O)(=O)c1cc(C(=O)OCC(=O)NC2CCCc3ccccc32)ccc1Cl (stereo not given),1,-2%,-0.6,0.0,-2,-0.9,-20,-26,-6.6,-1
O=C(NC(Cc1ccccc1)C(=O)O)OCC1c2ccccc2-c2ccccc21 (stereo not given),/,-4%,1.8,0.8,-1,-1.1,-31,-41,-11,40
O=C(O)c1ccc(NS(=O)(=O)c2cc(C(=O)O)ccc2Br)cc1,-9,12%,3.8,0.3,-8,/,/,/,/,-3
CCOC(=O)COc1cc(OCC(=O)OCC)c2c(=O)cc(-c3ccccc3)oc2c1,-4,5%,9.8,0.4,-16,/,/,/,/,-33
COc1cc(NS(=O)(=O)c2ccc(NC(=S)NC(=O)c3ccco3)cc2)nc(OC)n1,1,0%,-0.6,0.5,8,-3.0,-19,-16,-2.1,1
Cn1ccnc1CC(O)(c1ccccc1)c1ccccc1,-1,-10%,-0.6,-0.3,-14,-9.8,15,13,-2.6,-4
O=C(NCc1ccccc1Cl)C1CCCN(S(=O)(=O)c2cnc[nH]2)C1 (stereo not given),-9,2%,3.9,-1.5,-2,3.8,-3,-1,4.9,-5
OC(CNCc1cccc(Cl)c1)c1ccccc1 (stereo not given),1,/,1.7,-0.3,-9,-0.1,/,/,/,-8

A portion of the library. The share of hits here may be higher or lower than overall.
